From PubChem BioAssay
Rce1 inhib = yeast Ras-converting enzyme inhibition; Q03530; yeast membranes, quenched prenylated peptide cleavage fluorescence; calls only; 0.27% of 290,000 active; AID 2563;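 active = fall in fluorescence gain of 50% or more versus controls, with final raw signal at or below 3038400; inconclusive = same 50% fall but final raw signal above 3038400; inactive = fall in fluorescence gain under 50%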;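 note: plate controls were neutral control wells for no effect and wells lacking membranes for full effect; tested at 10 µM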
Target sequence (Q03530 whole entry, looked up): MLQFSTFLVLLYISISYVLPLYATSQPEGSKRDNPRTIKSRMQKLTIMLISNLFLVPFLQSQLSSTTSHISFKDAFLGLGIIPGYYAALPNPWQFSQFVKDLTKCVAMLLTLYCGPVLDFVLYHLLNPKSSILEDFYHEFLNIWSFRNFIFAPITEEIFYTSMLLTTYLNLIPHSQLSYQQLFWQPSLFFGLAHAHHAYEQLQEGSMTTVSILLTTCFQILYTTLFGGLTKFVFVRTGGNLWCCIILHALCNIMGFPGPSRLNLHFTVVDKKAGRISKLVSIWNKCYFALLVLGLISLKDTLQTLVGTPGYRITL
CSC inhib = cancer stem cell inhibition. cancer stem cell-like cells viability, luminescence. inhibition, % at 7.5 µM. 1.1% of 300,000 active. AID 2717;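 active = mean at 75% or more and at least half the replicates too; inconclusive = mean and replicates disagree; tested in HMLE shEcad cells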;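 note: 0% = median of negative and 100% = median of positive control wells; the first replicate is given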
PABP polyA inh = PABP-poly(A) binding inhibition. P11940. PABP-poly(A) RNA binding, fluorescence polarization. 1% of 290,000 active. inhibition, % at 35 µM;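 active = 50% or more with normal probe brightness, or confirmed in later tests; inconclusive = above 50% with abnormal brightness, or retests that disagree; inactive = below 50% or failed in later tests; about a fifth of its hits are not listed in these tables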;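 note: calls also rest on retests at 20 µM and on dose response follow-up; controls were probe without protein and protein plus probe with vehicle; some compounds called inactive have numbers as strong as hits; many hits fall short of the cut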
Env fusion inh = blocks HIV Env-driven cell-cell fusion | 1.1% of 360,000 active | HeLa-JRFL Env/CEM21 cell fusion, luciferase | inhibition, % at 12.3 µM;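 active = mean replicate inhibition score of at least 50 and every replicate individually at or above 50; inconclusive = only one of the two criteria met; inactive = mean below 50 and not all replicates reaching 50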;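 note: 0% = plate neutral controls and 100% = maraviroc near 300 nM; one replicate is shown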
Yeast UUG start = yeast start codon fidelity modulation; 0.13% of 350,000 active; S. cerevisiae UUG-firefly luciferase reporter, luminescence/redox ratio; activity score, % at 18.7 µM;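 active = replicate mean at a twofold rise or more, about +100% in these data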;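 note: firefly luciferase made from a UUG start codon reports start codon fidelity; reporter light over untreated wells divided by growth signal over untreated wells; some hits fall short of that in this replicate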
MT1-MMP act inh = MT1-MMP (human) activation inhibition. P50281. HT1080 RFP-PRO-GFP cells, GFP/RFP ratio fluorescence, overnight; percent of plate control window, DMSO zero. GFP/RFP ratio change, % at 20 µM. 0.061% of 360,000 active. AID 651647;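 active = GFP/RFP ratio change of at least 30% with cell ATP level not reduced by more than half and red fluorescence within 50% of control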; note: strong numbers were not always called active
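Read-out: GFP/RFP fluorescence ratio; Test system: RFP-PRO-GFP reporter HT1080 cells; Compound dosing: single-point 20 µM compound, 1% DMSO; Times: overnight compound exposure at 37 °C.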
eIF4H inh = inhibitors of RNA binding by human eIF4H; Q15056; eIF4H fluorescence polarization binding assay; inhibition, % at 35 µM; 0.94% of 290,000 active; AID 2012;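 active = 50% or more with normal probe brightness, or confirmed in later tests; inconclusive = above 50% with abnormal brightness, or retests that disagree; inactive = below 50% or failed in later tests; about a fifth of its hits are not listed in these tables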;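 note: calls also rest on retests at 20 µM and on dose response follow-up; 0% = protein and probe with vehicle and 100% = probe without protein; strong numbers were not always called active; many hits fall short of the cut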
eIF4H inh retest = further read-out of eIF4H inh, marked with its call; inhibition, %; compound at 20 µM; confirmation average;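 mean of two retest wells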
PABP polyA inh retest = recorded beside PABP polyA inh, whose call it bears; inhibition, %; compound at 20 µM; confirmation repeats;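 mean of two retest wells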
MT1-MMP act inh RFP = recorded beside MT1-MMP act inh, whose call it bears; RFP signal change, %; measured here: RFP expression control read;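 0 = vehicle wells; hits needed this value within 50% of zero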
The depositor's hits bear a star. An excerpt (hit frequency here may not be typical).

For CN(C)C(=O)c1cnc(-c2ccccc2)nc1-c1ccccc1 the results were Rce1 inhib inactive, CSC inhib -10.2, PABP polyA inh 3.3, Env fusion inh -24.6, Yeast UUG start -15.6, MT1-MMP act inh -1.2, eIF4H inh -10.3 and MT1-MMP act inh RFP 2.5.
Screening CCn1c2ccccc2c2cc(/C=N/NC(=O)c3ccccc3)ccc21 returned Rce1 inhib inactive, CSC inhib 46.0, PABP polyA inh 13.9, Env fusion inh 48.0, Yeast UUG start -20.6, MT1-MMP act inh -0.4, eIF4H inh -4.0 and MT1-MMP act inh RFP -10.3.
For CCCCn1c(N)c(N(CCOC)C(=O)CSc2nnc(C)n2-c2ccc(OC)cc2)c(=O)[nH]c1=O the results were Rce1 inhib inactive, CSC inhib -5.8, Env fusion inh -12.9, MT1-MMP act inh -17.5 and MT1-MMP act inh RFP -2.4.
`COCCCN(CC(=O)Nc1ccc(F)cc1)S(=O)(=O)c1cccs1` gave CSC inhib 19.5, Yeast UUG start -3.3, MT1-MMP act inh 4.8 and MT1-MMP act inh RFP 0.7.
CC(=O)c1ccc(NC(=O)Cn2c3ccccc3c3nc(=O)cc(C)n32)cc1 was read as Rce1 inhib inactive, CSC inhib -22.7, PABP polyA inh -8.5, Env fusion inh 7.5, Yeast UUG start -40.0, MT1-MMP act inh 1.6, eIF4H inh -7.6 and MT1-MMP act inh RFP 0.3.
`COc1ccc(-n2c(C)nc3cc(C(=O)O)ccc32)cc1` gave Rce1 inhib inactive, CSC inhib -9.2, PABP polyA inh 9.5, Yeast UUG start -14.2, MT1-MMP act inh 5.9, eIF4H inh -0.6 and MT1-MMP act inh RFP 6.1.
COc1cc(/C=C2/SC(=O)N(Cc3ccccc3Cl)C2=O)ccc1OCc1ccncc1 was read as Rce1 inhib inactive, CSC inhib 34.0, PABP polyA inh -6.9, Yeast UUG start 5.3, MT1-MMP act inh -54.0, eIF4H inh -5.7 and MT1-MMP act inh RFP -42.6.
CCOC(=O)c1ccccc1NC(=O)c1ccc2nccnc2c1 was read as Rce1 inhib inactive, CSC inhib -13.5, PABP polyA inh 2.6, Env fusion inh -4.4, MT1-MMP act inh -2.4, eIF4H inh 67.6*, eIF4H inh retest 92.3*, PABP polyA inh retest 28.1 and MT1-MMP act inh RFP 2.9.
C(=N\N=C\c1ccncc1)/c1ccncc1 was read as Rce1 inhib inactive, CSC inhib 6.2, Env fusion inh -50.6, Yeast UUG start -9.3, MT1-MMP act inh -0.1 and MT1-MMP act inh RFP 0.5.
`COc1cccc(/C=N/Nc2ccc(Cl)nn2)c1` gave Rce1 inhib inactive, CSC inhib -6.7, PABP polyA inh -14.6, Env fusion inh -44.0, Yeast UUG start -17.8, MT1-MMP act inh 2.2, eIF4H inh -5.6 and MT1-MMP act inh RFP 3.2.
Screening CCCNC(=O)c1cc(S(=O)(=O)N2CCCCC2)c[nH]1 returned Rce1 inhib inactive, CSC inhib -14.8, PABP polyA inh -10.3, Yeast UUG start -25.2, MT1-MMP act inh -0.8, eIF4H inh 2.9 and MT1-MMP act inh RFP -4.2.
For COc1ccc(C(=O)NNC(=O)CNC(=O)C2CCCCC2)cc1 the results were Rce1 inhib inactive, CSC inhib 7.7, PABP polyA inh 4.4, Env fusion inh -14.3, Yeast UUG start 8.5, MT1-MMP act inh 3.8, eIF4H inh 2.3 and MT1-MMP act inh RFP 4.2.
Screening NC(CO)c1cn([C@@H](CCC(=O)O)C(=O)N2CCNCC2)nn1 (some centres undefined) returned Rce1 inhib inactive, CSC inhib -13.2, PABP polyA inh 18.4, Env fusion inh -22.5, Yeast UUG start -21.5, MT1-MMP act inh 4.4, eIF4H inh -1.9 and MT1-MMP act inh RFP 5.8.
`CCOc1ccc(NC(=O)CN(C)C(=O)C2CCCO2)cc1OCC` (centres undefined) gave Env fusion inh 2.5, Yeast UUG start -16.4, MT1-MMP act inh 3.4 and MT1-MMP act inh RFP 0.1.
Screening CC(=O)Nc1ccc2nc(C3CCCCC3)[nH]c2c1 returned Rce1 inhib inactive, CSC inhib -8.9, PABP polyA inh -8.7, Env fusion inh -124.1, Yeast UUG start 2.3, MT1-MMP act inh -6.3, eIF4H inh 5.2 and MT1-MMP act inh RFP -5.5.
Screening COc1ccc(-c2n[nH]c(=S)n2/N=C/C=C\c2ccccc2OC)cc1 returned Rce1 inhib inactive, CSC inhib 47.7, PABP polyA inh -8.3, MT1-MMP act inh 0.0, eIF4H inh 1.9 and MT1-MMP act inh RFP -0.1.
O=C(CCSc1ccc(Cl)cc1)NN=C1CCCCCC1 was read as Rce1 inhib inactive, CSC inhib -2.5, PABP polyA inh -2.1, Env fusion inh 8.3, MT1-MMP act inh -1.4, eIF4H inh -10.1 and MT1-MMP act inh RFP -0.9.
For COCC(=O)N(c1ccccc1)C(C)C(=O)OC (centres undefined) the results were Rce1 inhib inactive, CSC inhib -13.2, PABP polyA inh -7.6, Env fusion inh 0.6, Yeast UUG start -10.0, MT1-MMP act inh 3.5, eIF4H inh -3.0 and MT1-MMP act inh RFP 5.8.
Screening Cc1nnc(NC(=O)CSc2nnc3c(n2)[nH]c2ccc(Br)cc23)s1 returned Rce1 inhib inactive, CSC inhib -7.6, PABP polyA inh 3.3, Env fusion inh -8.7, MT1-MMP act inh -0.3, eIF4H inh 35.3 and MT1-MMP act inh RFP 3.7.
`O=S(=O)(NCc1ccco1)c1ccccc1Br` gave Rce1 inhib inactive, CSC inhib -8.5, PABP polyA inh -3.9, Env fusion inh 15.6, Yeast UUG start -18.1, MT1-MMP act inh 1.8, eIF4H inh -10.7 and MT1-MMP act inh RFP 7.4.
CCn1cc(C(=O)NCc2ccco2)c(=O)c2cc(S(=O)(=O)N3CCc4ccccc4C3)ccc21 was read as Rce1 inhib inactive, CSC inhib 41.7, PABP polyA inh 1.6, Env fusion inh 14.7, Yeast UUG start -18.0, MT1-MMP act inh -1.7, eIF4H inh 15.3 and MT1-MMP act inh RFP -7.6.
Screening O=C(Cn1nc(C(=O)O)c2ccccc2c1=O)Nc1ccc2c(c1)C(=O)c1ccccc1C2=O returned Rce1 inhib inactive, CSC inhib -4.2, PABP polyA inh inconclusive and eIF4H inh inconclusive.
For Cc1ccc(-n2ncc3c(NCCCOC(C)C)ncnc32)c(C)c1 the results were Rce1 inhib inactive, CSC inhib 8.0, Yeast UUG start -7.0, MT1-MMP act inh 2.1 and MT1-MMP act inh RFP -4.9.
For C#CCNC(=O)C1=C[C@H](c2csc3ccccc23)[C@@H](CCCO)[C@H](OCC)O1 the results were Rce1 inhib inactive, CSC inhib -19.5, PABP polyA inh -6.8, Env fusion inh -1.1, Yeast UUG start 12.0, MT1-MMP act inh -0.2, eIF4H inh -3.3 and MT1-MMP act inh RFP 2.5.
`CCN(CC)C(=O)COc1ccc(/C(C)=N/NC(=O)c2ccccc2Br)cc1` gave Rce1 inhib inactive, CSC inhib -3.1, PABP polyA inh 3.7, Env fusion inh -15.7, Yeast UUG start -7.4, MT1-MMP act inh 1.9, eIF4H inh -4.4 and MT1-MMP act inh RFP 2.4.
For Cc1n[nH]c(C)c1C(=O)CC1(O)C(=O)N(CCc2ccccc2)c2ccc(Br)cc21 (centres undefined) the results were Rce1 inhib inactive, CSC inhib -12.0, PABP polyA inh -5.9, Env fusion inh 11.0, Yeast UUG start -17.8, MT1-MMP act inh -1.7, eIF4H inh -6.9 and MT1-MMP act inh RFP 0.2.
Cc1cccc2sc(NNC(=O)c3ccc(S(=O)(=O)N4CCCC(C)C4)cc3)nc12 (centres undefined) was read as Rce1 inhib inactive, CSC inhib 127.6*, PABP polyA inh 6.5, Yeast UUG start -33.9, MT1-MMP act inh 1.7, eIF4H inh 7.3 and MT1-MMP act inh RFP -10.5.
For Cc1ccccc1NC(=O)Cc1nnc(SCC(=O)NC2=NCCS2)n1C the results were Rce1 inhib inactive, CSC inhib -15.9, PABP polyA inh -0.2, Env fusion inh -3.6, Yeast UUG start -15.0, MT1-MMP act inh 0.8, eIF4H inh -10.4 and MT1-MMP act inh RFP 4.0.
COc1ccc(C2N=C(c3ccccc3)NO2)cc1OC (centres undefined) was read as Rce1 inhib inactive, CSC inhib -4.6, PABP polyA inh 13.9, Env fusion inh -64.4, Yeast UUG start -4.7, MT1-MMP act inh 6.5, eIF4H inh -4.2 and MT1-MMP act inh RFP 5.9.
COc1ccc(CCNC(=O)c2c(O)c3ccccc3n(C)c2=O)cc1 was read as Rce1 inhib inactive, CSC inhib -12.5, PABP polyA inh -7.2, Env fusion inh -3.8, Yeast UUG start 4.4, MT1-MMP act inh 0.4, eIF4H inh -13.9 and MT1-MMP act inh RFP -1.5.
O=C(CCN1CCCCC1c1cccnc1)NCc1ccccc1 (centres undefined) was read as Rce1 inhib inactive, CSC inhib -9.9, PABP polyA inh 4.6, Yeast UUG start -11.3, MT1-MMP act inh 0.8, eIF4H inh -1.4 and MT1-MMP act inh RFP 8.4.
For CCOc1ccccc1-c1n[nH]c(=S)o1 the results were Rce1 inhib inactive, CSC inhib 2.1, PABP polyA inh 0.6, Env fusion inh 6.0, Yeast UUG start -20.9, MT1-MMP act inh -4.1, eIF4H inh -11.9 and MT1-MMP act inh RFP 0.8.
`Cc1ccc(C(=O)N2CCN(S(=O)(=O)N3CCOCC3)CC2)cc1` gave Rce1 inhib inactive, CSC inhib -3.9, PABP polyA inh -13.1, Env fusion inh 8.6, MT1-MMP act inh 1.2, eIF4H inh -7.1 and MT1-MMP act inh RFP -1.0.
For Cc1ccc2c(c1C)OC(=O)CC2(C)C the results were Rce1 inhib inactive, CSC inhib -19.1, PABP polyA inh -4.1, Env fusion inh 13.7, Yeast UUG start -0.9, MT1-MMP act inh -2.3, eIF4H inh 2.4 and MT1-MMP act inh RFP -3.2.
For COc1ccccc1OCC(=O)NCCCn1ccnc1 the results were Rce1 inhib inactive, CSC inhib 5.3, PABP polyA inh 1.9, Env fusion inh 3.6, MT1-MMP act inh -0.2, eIF4H inh -0.7 and MT1-MMP act inh RFP 5.3.
For CCN(CC)C(=O)CN(c1cccc([N+](=O)[O-])c1)S(=O)(=O)c1ccccc1 the results were Rce1 inhib inactive, CSC inhib -7.8, PABP polyA inh 10.4, Env fusion inh -14.5, Yeast UUG start -13.2, MT1-MMP act inh 8.1, eIF4H inh -5.9 and MT1-MMP act inh RFP 1.1.
For CCn1c(C)nnc1SCC(=O)NC1CCCC1 the results were Rce1 inhib inactive, CSC inhib -12.7, PABP polyA inh 1.0, Env fusion inh 5.4, Yeast UUG start -13.5, MT1-MMP act inh -0.4, eIF4H inh -3.6 and MT1-MMP act inh RFP 4.2.
`O=C(Oc1ccccc1)c1ccc(-n2cnnn2)cc1` gave Rce1 inhib inactive, CSC inhib -1.2, PABP polyA inh 0.4, Env fusion inh -64.8, MT1-MMP act inh -5.1, eIF4H inh 11.6 and MT1-MMP act inh RFP -3.1.
Screening Cc1cc(NC(=O)CCC(=O)N(CCC(C)C)CC(=O)NCC2CCCO2)no1 (centres undefined) returned Rce1 inhib inactive, CSC inhib -4.3, PABP polyA inh -3.6, Env fusion inh inactive, Yeast UUG start -10.4, MT1-MMP act inh 1.3, eIF4H inh -0.7 and MT1-MMP act inh RFP -0.1.
